LANA-H2A inh: blocks KSHV LANA binding to histone H2A/H2B; Q9QR71; cell-free LANA-H2A/H2B peptide, fluorescence polarization; AID 2629; hit rate 0.6% among 320,000; inhibition, % (no concentration beside the values); in the data active = inhibition mostly above about 10%, no sharp cut-off; inactive = mostly below about 6.7%;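 also: stock transfer was 7.5 nL into about 10 µL; 0% = median of vehicle wells and 100% = median of positive control wells; one replicate is shown; the record names a cut of 25% in any replicate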
Vif TR-FRET: HIV-1 Vif–A3G interaction blockers – biochemical, TR-FRET, GST-Vif 1-94, biotin-A3G peptide, dose response retest, primary screen (AID 1117319); TR-FRET GST-Vif / biotin-A3G peptide binding; higher % means a stronger effect; test concentration not given here; strong numbers were not always called active; inhibition, %, or IC50 in µM where a hit was titrated; hit rate 0.57% among 260,000;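 active = above the screen mean plus three standard deviations and confirmed in dose response; inconclusive = results disagree or hit not tested in dose response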;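 also: Vif residues 1-94 fused to GST binding biotinylated APOBEC3G peptide 110-148; 0% = full assay without inhibitor and 100% = GST in place of GST-Vif; retest series ran down from 100 µM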
E coli growth: inhibitors of Escherichia coli growth | OD600, 23 h; active compounds read low | OD600 absorbance (test concentration not listed) | hit rate 0.21% among 330,000;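 active = OD600 absorbance below the run mean of sample wells minus 3.6 SD, in any replicate, cut at about 0.56 in these data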;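 also: stock transfer was 300 nL into about 60 µL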
HNF4A DNA FP: change in binding of human HNF4 alpha to DNA | HNF4a-FITC DNA binding, fluorescence polarization, 1 h | hit rate 0.3% among 360,000 | P41235 | activity change, % at 10 µM; in the data active = activity change above about 30%, passing the limit was not always enough;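 also: controls were the assay level and a saturating level of protein; the project sought stronger binding though the title names inhibitors; some compounds called inactive have numbers as strong as hits; positive values seem to mean higher polarization but the record does not say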
Beta2AR agonist: agonists of human beta-2 adrenergic receptor inducing internalization; Am2.2-beta2AR cells, FAP receptor internalization, flow cytometry; reference of the scale not given here; AID 504454; hit rate 0.43% among 340,000; response, % (concentration not given with the values);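 active = response above a set limit, near 3 SD of response in nonfluorescent compounds, cut at about 42% in these data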;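 also: stock transfer was 100 nL into about 11 µL; a reference agonist was the positive control; negative values mostly stem from fluorescent compounds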
Target sequence (P07550 whole entry, looked up): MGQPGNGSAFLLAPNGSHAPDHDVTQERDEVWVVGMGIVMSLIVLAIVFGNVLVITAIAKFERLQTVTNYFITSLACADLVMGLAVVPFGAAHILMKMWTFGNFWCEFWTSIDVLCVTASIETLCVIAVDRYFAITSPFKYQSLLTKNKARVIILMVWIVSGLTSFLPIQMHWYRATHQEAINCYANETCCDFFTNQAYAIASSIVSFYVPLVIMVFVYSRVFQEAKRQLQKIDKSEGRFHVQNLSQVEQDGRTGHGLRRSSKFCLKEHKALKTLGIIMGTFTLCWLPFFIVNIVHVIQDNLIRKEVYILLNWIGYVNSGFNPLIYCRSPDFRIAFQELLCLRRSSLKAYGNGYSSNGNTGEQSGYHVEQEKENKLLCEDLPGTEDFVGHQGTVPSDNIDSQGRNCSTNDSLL
Bfl-1 A1 inh: inhibitors of the anti-apoptotic protein A1, read as caspase activation. MEF A1-2A-BIM cells, Caspase-Glo 3/7 luminescence, 3 h; percent of clofoctol response, vehicle zero. caspase activation, % (no concentration beside the values). hit rate 0.066% among 330,000. AID 2462;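 active = over half of replicate activation scores above 10%, or exactly half above 10 with the replicate mean above 10; inconclusive = replicate mean below 10 yet half the replicates above 10; inactive = over half of replicates below 10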;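 also: wells of about 30 µL received 50 nL stock; many hits fall short of the cut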
UCH37 DUB inh: blocks the human deubiquitinase UCH37. Q9Y5K5. purified proteasome/UCH37, Ub-AMC cleavage fluorescence. inhibition, % (concentration not given with the values). hit rate 0.33% among 330,000. AID 588478;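 active = mean of two replicates above 20%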;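 also: 0% = compound-free wells with enzyme and 100% = wells lacking proteasome; stock transfer was 100 nL into about 20 µL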
Target sequence (Q9Y5K5 whole entry, looked up): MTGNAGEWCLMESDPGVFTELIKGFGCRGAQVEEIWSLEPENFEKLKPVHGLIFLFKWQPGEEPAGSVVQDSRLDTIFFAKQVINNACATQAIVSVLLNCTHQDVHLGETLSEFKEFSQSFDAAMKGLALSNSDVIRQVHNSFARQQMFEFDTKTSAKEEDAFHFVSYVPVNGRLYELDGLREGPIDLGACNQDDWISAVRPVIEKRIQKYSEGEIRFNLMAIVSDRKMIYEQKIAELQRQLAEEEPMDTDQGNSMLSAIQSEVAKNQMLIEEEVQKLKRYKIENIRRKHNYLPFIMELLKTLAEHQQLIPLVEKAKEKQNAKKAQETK
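assay system = human UCH37 enzyme supplied as purified proteasome complex | amount = proteasome at 0.15 nM in the dispensed enzyme solution | schedule = 30 min compound-proteasome preincubation then 25 min substrate reaction, room temperature | measured by = fluorescence, ex 355 nm, em 460 nm | benchmarks = no-proteasome wells (full inhibition) and compound-free wells (no inhibition)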
* marks the source's active call; other numbers are inactive results; u = inconclusive; x = not tested or not shown; & = joins results of further samples.

SMILES,LANA-H2A inh,Vif TR-FRET,E coli growth,HNF4A DNA FP,Beta2AR agonist,Bfl-1 A1 inh,UCH37 DUB inh
CN1CCc2c(sc(NC(=O)c3ccc4ccccc4c3)c2C(N)=O)C1,-11,x,x,32,-33,-4.7,x
COC(=O)c1ccccc1NC(=O)NCc1ccccc1,-10,x,0.69,-0.1,-6,-0.8,-3.1
COc1cccc(-c2coc3cc4oc(=O)c(CC(=O)O)c(C)c4cc23)c1,2.4,-4%,0.68,-1.5,-1,0.8,-4.7
NC(=O)NC(=O)COC(=O)c1cccc(NS(=O)(=O)/C=C/c2ccccc2)c1,-1.3,20%,0.69,-0.8,-5,0.2,3.0
CC(=O)Nc1ccc(C2=NN(Cc3nnc(-c4ccccc4)o3)C(=O)SC2)cc1,-1.4,-9%,x,2.5,-19,0.5,x
Cc1ccc(C)c(Cn2nc(-c3cc(C)ccc3C)ccc2=O)c1,-3.5,1%,0.65,3.2,-1,0.1,3.3
CCOC(=O)Cc1nnc(NC(=O)c2ccccc2OC)s1,4.0,-1%,0.77,2.3,1,1.6,0.6
O=C(c1cccc(F)c1)N1CCN(c2cccc(C(F)(F)F)c2)CC1,0.2,1%,0.63,-0.8,-1,0.0,1.7
CCN(c1ccccc1)S(=O)(=O)c1cccc(C(=O)NCC(c2ccc(F)cc2)N2CCOCC2)c1 (stereo not drawn),x,-8%,0.68,-2.7,0,x,-2.2
C#CCOCCOCCOCCNc1nc(N2CCN(C(=O)Cn3cc(CCO)nn3)CC2)nc(N2CCN(C(=O)[C@H](C(C)C)n3cc(CCO)nn3)CC2)n1,1.0,0%,x,0.3,-10,1.8,0.5
O=C(Nc1ccc(N2CCOCC2)nc1)c1ccc(F)cc1,-3.4,3%,0.66,1.6,-1,0.3,3.9
COc1ccc(-n2c(CSc3nc(C)cc(C)n3)nnc2SCC(=O)Nc2nccs2)cc1,-5.5,14%,0.73,-0.8,-15,0.6,1.9

Later entries.
SMILES,LANA-H2A inh,Vif TR-FRET,E coli growth,HNF4A DNA FP,Beta2AR agonist,Bfl-1 A1 inh,UCH37 DUB inh
Cc1ccc(C(=O)CC(=O)c2cc(Cl)ccc2O)cc1,-0.6,-10%,0.56,2.0,11,-4.4,2.3
CCOc1ccc(C(C)=O)cc1COc1ccc(C)nc1[N+](=O)[O-],0.4,x,0.7,-2.3,-19,0.2,6.5
COc1ccc(CCNC(=O)NS(=O)(=O)c2ccc(C)cc2)cc1OC,-0.1,-6%,0.71,5.5,-6,-0.5,3.1
CCSC(=S)c1c(C)[nH]n(-c2ccccc2)c1=O,3.0,3%,0.64,4.0,6,-1.4,15
O=C(CN(Cc1ccco1)C(=O)c1ccc([N+](=O)[O-])cc1)Nc1ccccc1C(F)(F)F,3.6,9%,0.65,2.6,4,1.1,-1.1
CCCC(C)NC(=O)COC(=O)c1ccc2c(c1)C(=O)N(Cc1ccco1)C2=O (stereo not drawn),5.3,5%,0.67,0.6,-1,-0.2,2.0
C=CC(O)Cc1c(C)n[nH]c1C (stereo not drawn),-4.2,4%,0.64,-3.2,1,-0.3,0.0
O=C1C(=O)C(c2ccccc2)C(=O)C1c1ccccc1 (stereo not drawn),x,-3%,0.69,-5.5,7,x,2.9
COc1ccc(CC(=O)NC(CC(=O)O)c2ccc(OC)cc2)cc1 (stereo not drawn),-14,3%,0.67,-0.4,4,-1.6,5.1
CCC(C)(C)n1nnnc1C(c1cccnc1)N1CCCc2ccccc21 (stereo not drawn),1.0,3%,0.66,-1.8,1,0.1,2.6
CCn1cc(S(=O)(=O)NCc2ccc3c(c2)OCO3)cn1,0.4,x,0.66,1.4,4,0.4,2.4
Cc1ccc(-n2nc(C)c(NS(=O)(=O)c3ccccc3)c2C)cc1C,-5.7,2%,0.66,-0.9,3,-0.6,3.4

Three compounds out of the list, arranged by formula weight, largest number first.
SMILES,LANA-H2A inh,Vif TR-FRET,E coli growth,HNF4A DNA FP,Beta2AR agonist,Bfl-1 A1 inh,UCH37 DUB inh
Cc1ccc(-n2nc(C)c(NS(=O)(=O)c3ccccc3)c2C)cc1C,-5.7,2%,0.66,-0.9,3,-0.6,3.4
CCSC(=S)c1c(C)[nH]n(-c2ccccc2)c1=O,3.0,3%,0.64,4.0,6,-1.4,15
C=CC(O)Cc1c(C)n[nH]c1C (stereo not drawn),-4.2,4%,0.64,-3.2,1,-0.3,0.0

Next section
SMILES,LANA-H2A inh,Vif TR-FRET,E coli growth,HNF4A DNA FP,Beta2AR agonist,Bfl-1 A1 inh,UCH37 DUB inh
COc1cccc(CNn2c(-c3cccc(C)c3)nc3ccccc3c2=O)c1,-0.4,0%,0.71,-0.8,9,-0.6,-1.1
O=S(=O)(Cc1ccc(Cl)cc1)c1ccccc1-c1nnc(-c2ccc(Cl)cc2)o1,1.0,0%,0.73,-1.7,1,-0.8,-13
CCOC(=O)C1=C(Nc2ccccc2)CC(C)(O)C(C(=O)OCC)C1c1ccc(Br)cc1 (stereo not drawn),4.2,x,0.7,-3.1,2,0.7,-1.9
CC(=O)c1ccc(N2CCN(C(=O)C3CCCN(S(=O)(=O)c4cnc[nH]4)C3)CC2)cc1 (stereo not drawn),-2.0,15%&0%,0.68,-2.5,5,-1.3,7.1
O=C(CN1CCN(c2ccc(F)cc2)CC1)Nc1nccs1,2.9,6%,0.7,-1.5,-2,-1.3,4.6
COCCNC(=O)C(c1ccc(F)cc1)N(C(=O)CCC(=O)Nc1ccccn1)c1ccc(C)cc1 (stereo not drawn),2.4,x,0.64,-0.2,2,u,0.7
Cc1ccc(Nc2nc(N)c([N+](=O)[O-])c(NCCO)n2)cc1C,1.8,1%,0.66,1.8,1,-0.5,7.8
O=C(O)C1CSC(c2ccco2)N1 (stereo not drawn),-0.8,x,x,-40,6,0.4,x
CC1(C)C2CCC1(CS(=O)(=O)Nc1ccc(S(=O)(=O)NC3CCCCC3)cc1)C(=O)C2 (stereo not drawn),x,x,0.68,-0.6,-8,-0.4,-0.1
COCCN(C(=O)COC(=O)C1CC1C)c1c(N)n(Cc2ccccc2)c(=O)[nH]c1=O (stereo not drawn),2.7,0%,0.69,5.2,-3,-0.3,0.3
CCN1C(=O)/C(=C/c2nc3ccccc3c(=O)n2-c2ccccc2)c2ccccc21,2.6,7%,0.75,-2.1,10,-0.1,7.3
CC(C)C(Nc1ccc(C(F)(F)F)cc1[N+](=O)[O-])C(=O)O (stereo not drawn),0.4,-7%,0.7,-4.2,-1,0.3,5.0

(cont.)
SMILES,LANA-H2A inh,Vif TR-FRET,E coli growth,HNF4A DNA FP,Beta2AR agonist,Bfl-1 A1 inh,UCH37 DUB inh
COc1cc(OC)c(NC(=O)CN(C)S(=O)(=O)c2ccc3[nH]c(=O)oc3c2)cc1Cl,1.0,x,0.71,0.5,8,-0.8,5.1
CC(C)CN(C(=O)CN1C(=O)C2CCCCC2C1=O)c1c(N)n(Cc2ccccc2)c(=O)[nH]c1=O (stereo not drawn),-3.0,-6%,0.73,0.7,-1,-0.2,3.9
O=C(C1CCCN(S(=O)(=O)c2cnc[nH]2)C1)N1CC(=O)N(CCc2ccccc2)C(=O)C1 (stereo not drawn),3.4,5%,0.75,-2.1,6,0.0,6.0
CC(=O)C1CCCN(C(=O)c2ccc3nc(Cc4cccc(Cl)c4)oc3c2)C1 (stereo not drawn),0.3,x,0.72,-0.8,4,0.6,4.1
CN1C(=O)N(C)C(c2cccc([N+](=O)[O-])c2)C2=C1CCCC2=O (stereo not drawn),11,x,0.7,5.9,-1,-0.2,3.8
CC(CCc1ccccc1)NC(=O)COC(=O)c1cccn1C (stereo not drawn),0.7,2%,0.71,0.0,7,1.0,1.7
O=C(N/C(=C/c1cccs1)C(=O)N1CCOCC1)c1ccccc1,0.8,5%,0.65,-1.6,-2,0.6,6.8
O=C1NC(=S)SC1=C1CCCCCC1,-3.1,17%,0.75,0.4,4,-0.4,5.5
O=C(CN1C(=O)CSc2cc(S(=O)(=O)N3CCCCCC3)ccc21)NCCc1ccccc1,-1.5,4%,0.67,1.7,-2,-0.5,0.3
COc1cc(/C=C/C(=O)OCC(=O)NC(=O)NC2CCCCC2)ccc1OC(F)F,-6.9,x,0.68,0.6,-3,-0.3,-0.4
Nc1cc2c(cc1N)-c1ccccc1C2,x,-8%,0.6,2.8,14,x,-46
CCOC(=O)C(CC)n1cnc2c(nnn2-c2ccccc2)c1=O (stereo not drawn),-3.3,x,0.69,-2.8,-2,0.2,2.9

Next results:
SMILES	LANA-H2A inh	Vif TR-FRET	E coli growth	HNF4A DNA FP	Beta2AR agonist	Bfl-1 A1 inh	UCH37 DUB inh
COc1ccc(S(=O)(=O)N2CCN(Cc3c[nH]c4ccccc34)CC2)cc1	-5.6	-8%	0.69	-1.5	-28	0.2	2.0
CCN1CCc2c(OCC(=O)Nc3cccc(C)c3C)cccc2C1=O	0.2	-14%	0.66	x	x	0.2	0.4
CCCn1c(SCC(=O)NC2CCCCC2C)n[nH]c1=O (stereo not drawn)	-0.3	1%	0.74	-1.6	11	0.0	0.1
Cn1c(=O)c2c(nc(NCc3ccc4c(c3)OCO4)n2C)n(C)c1=O	-1.7	6%	0.72	1.2	12	0.1	0.6
COc1ccc(C2C(C#N)=C(N)Oc3n[nH]c(C)c32)cc1CSc1ccccn1 (stereo not drawn)	8.0	1%	0.72	-1.6	10	-0.6	3.9
Cc1ccn2c(=O)c(C(=O)NCCN3CCOCC3)c(O)nc2c1	-0.6	x	0.69	1.0	2	-0.8	-12
CCC(=O)Nc1cc2c3c(c1)CCN3C(=O)CC2	-8.5	-3%	0.67	-1.6	-3	0.8	1.6
CCCNC(=O)c1onc(CSc2ccc(Cl)cc2)c1C(=O)NCCOC	-2.5	x	0.72	0.4	4	-0.3	-1.1
Cc1ccc(OCCOc2cccc3ccc(C)nc23)c([N+](=O)[O-])c1	-2.6	8%	0.7	3.1	0	0.0	4.7
c1ccc(CNc2nc(-c3cccs3)nc3ccccc23)cc1	x	x	0.68	1.6	-13	x	-0.5
COc1ccc(NC(=O)c2ccc(C)cc2)c(OC)c1	-2.4	4%	0.72	2.5	7	-1.0	-0.9
